Rango release inh: qHTS Assay for Inhibitors of RanGTP induced Rango (Ran-regulated importin-beta cargo) - Importin beta complex dissociation | Biochemical FRET Rango-importin beta, RanGTP-induced dissociation | Snurportin-1 (Homo sapiens) + GTP-binding nuclear protein Ran (Homo sapiens) + Importin … | Potency, µM (highest dose often 46.1 µM), inactives show at the highest dose activity change, negative = inhibition | AID 540253, 2011 | 340,000 compounds, 0.071% hits; active means falling FRET ratio curve, often poorly fitted, with flat reads before Ran was added; inconclusive means other falling curves, or compound fluorescence or quenching; inactive means flat or rising ratio curve;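 note: potency is the fitted concentration of half-maximal effect; % of control where 0% means no effect; nearly all actives have a fitted effect of over 45% in size; -100% = wells without RanGTP and RCC1; the record marks most hits as doubtful in a second field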
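Rango (0.1 uM)–importin beta (0.25 uM) complex; RanGTP-RCC1 trigger; 45 min RT; CFP/YFP FRET read.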
Rango-impB inh: qHTS Assay for Inhibitors of Rango (Ran-regulated importin-beta cargo) - Importin beta complex formation | Rango CFP/YFP FRET sensor + importin beta, 45 min | 340,000 compounds, 0.031% hits | Importin subunit beta-1 (Homo sapiens), Q14974 | Potency, µM (top dose mostly 92.2 µM), for inactives: at the top dose inhibition of complex formation; active = rising FRET ratio curve, often small or poorly fitted; inconclusive = mostly compound fluorescence or quenching in the first reads; inactive = flat curves in all reads;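 note: potency is the fitted concentration of half-maximal effect; 0% = DMSO wells and 100% = buffer wells lacking importin beta; nearly all actives have a fitted effect of over 15% in size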
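FRET biosensor (snurportin 1 IBB flanked by EYFP and cerulean), 50 nM, with compound 5 min, then 0.125 microM importin beta in PBS, 1 mM DTT, 0.02% Tween-20, 0.1% BSA. CFP/YFP ratio read after 45 min at room temperature; pre-read flags interference.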
miR-21 reporter: qHTS Assay for Modulators of miRNAs and/orActivators of miR-21; HeLa miR-21 FLuc reporter, luciferase, 48 h; Potency, µM (doses to about 38.3 µM), for inactives: at the highest dose reporter change, positive = more light; 340,000 tested, under 10 active; AID 2288, 2010; active = well fitted rising curve with a large enough effect; inconclusive = small, poorly fitted or top-dose-only effect; inactive = no such curve, though single readings can be large or run the other way;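 note: % of control where 0% means no effect; miR-21 action dims this reporter so a rising signal means less miR-21 action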
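HeLa cells stably expressing CMV-driven firefly luciferase with a downstream miR-21 binding sequence, endogenously expressing miR-21, were treated with titrations (up to about 40uM final) for 48 hours at 37 degree Celsius. Luciferase luminescence was read after lysis.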
GLA inh pH 4.5: qHTS Assay for Inhibitors of Human alpha-Galactosidase at pH 4.5; Alpha-galactosidase A (Homo sapiens), P06280; purified enzyme, 4-MU-alpha-Gal fluorescence, pH 4.5; activity change, negative = inhibition, % at 105 µM; 230,000 tested, under 10 active; inconclusive = small, poorly fitted or top-dose-only inhibition, or a rising curve; inactive = flat fitted curve, though single readings scatter; no compound was filed as active;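 note: 0% = full activity with enzyme and -100% = basal without enzyme; dose as in the result columns while the protocol names 77 µM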
Target sequence (P06280 whole entry, looked up): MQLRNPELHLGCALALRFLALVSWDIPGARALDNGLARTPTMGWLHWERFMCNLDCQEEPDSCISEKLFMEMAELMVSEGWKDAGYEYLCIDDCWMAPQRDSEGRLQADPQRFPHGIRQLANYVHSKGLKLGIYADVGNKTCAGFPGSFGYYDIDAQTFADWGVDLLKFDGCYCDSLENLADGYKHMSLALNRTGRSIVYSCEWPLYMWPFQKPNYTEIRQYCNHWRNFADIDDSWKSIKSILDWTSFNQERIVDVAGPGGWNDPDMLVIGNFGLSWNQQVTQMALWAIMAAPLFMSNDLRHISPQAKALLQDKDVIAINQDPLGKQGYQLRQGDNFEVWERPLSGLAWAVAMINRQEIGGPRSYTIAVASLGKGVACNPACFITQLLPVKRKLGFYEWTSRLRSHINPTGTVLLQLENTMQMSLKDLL
* hit, by the source's call; ? = inconclusive; · = no result given; & = joins results of further samples.

Rango release inh	Rango-impB inh	molecule	miR-21 reporter	GLA inh pH 4.5
1%	1.4%	CC(C)(C)NC(=O)C(c1ccncc1)N(C(=O)c1csnn1)C1CC1 (stereo not drawn)	-2%	-7
-24%	4.7%	N#Cc1c(-c2ccc(Br)cc2)nc2n(c1=O)CCCS2	-14%	-3
9%	-2.7%	CCC(=O)N(CCc1ccccc1C)Cc1cc2cc3c(cc2[nH]c1=O)OCO3	-2%	4
2%&-8%	2.0%&-0.3%	COc1cc2nc(N3CCN(C(=O)C4CCCO4)CC3)nc(N)c2cc1OC (stereo not drawn)	-14%&-15%&-15%	?
9%	-2.1%	COc1ccc(NC(=O)CN(C)C(=O)c2cc(S(=O)(=O)N(C)C)ccc2N2CCCC2)cc1	·	·
30%	-0.3%	Cc1ccc(C(=O)N/C(=C/c2ccc(Cl)cc2)C(=O)Nc2cccc(C(=O)O)c2)cc1	-1%	-4
1%	0.0%	CCNC(=O)N(C)c1nncnc1C(=O)NC	-1%	6
-15%	0.3%	Cc1ccc(S(=O)(=O)C2CCOC2=O)cc1 (stereo not drawn)	0%	-1
6%	5.0%	CC(/C=C/c1ccccc1)=N\Nc1ccccc1[N+](=O)[O-]	-18%	8
-7%	-1.6%	COCCn1c(SCC(=O)Nc2ccc(Cl)cn2)nnc1-c1ccncc1	-1%	-4
1%	-1.9%	Cc1cc(C(=O)OCC(=O)N(C)c2c(N)n(Cc3ccccc3)c(=O)[nH]c2=O)c(C)n1-c1ccccc1	·	·
-16%	-0.5%	Cc1ccc(C2CC(=O)N3CN(c4ccc(Br)cc4)CSC3=C2C#N)o1 (stereo not drawn)	-10%	-10
-12%	-1.0%	COc1cc2sc(-c3ccccc3OC)c(-c3ccc(O)cc3)c2cc1OC	·	·
-13%	-0.5%	COc1ccc2cnn(-c3ccc(OC(F)(F)Cl)cc3)c(=O)c2c1OC	1%	9
6%	1.0%	NS(=O)(=O)c1ccc(Nc2c([N+](=O)[O-])cncc2[N+](=O)[O-])cc1	11%	·
1%	3.1%	CC(=O)N1CCc2ccc(N)cc21	·	·
5%	0.6%	CC1(C)CC(=O)C2=C(C1)Nc1ncnn1C2c1cccs1 (stereo not drawn)	1%	4
-11%	-0.2%	O=C(CCN1C(=O)/C(=C/c2ccc3c(c2)OCO3)SC1=S)NNC(=O)c1cccnc1	2%	-7
14%	0.7%	C/C(=C\C(=O)c1ccc(Br)cc1)Nc1cccc(Cl)c1	·	·
7%	-2.9%	CC(C(=O)N1CCN(c2ccccc2)CC1)c1ccc([N+](=O)[O-])cc1 (stereo not drawn)	6%	·
25%	0.7%	Cc1cccc(NS(=O)(=O)c2ccc3[nH]c(=O)oc3c2)c1C	·	·
·	·	CCN(CC)CCN1C(=O)C(=O)/C(=C(/O)c2ccc(OCC(C)C)cc2)C1c1ccncc1 (stereo not drawn)	-3%	2
-21%	3.4%	N#C/C(=C\c1ccc(/C=C(/C#N)c2nn(CCO)c(N)c2C#N)cc1)c1nn(CCO)c(N)c1C#N	-7%	-15
22%	-3.5%	COc1cc(C(=O)OCC(=O)N2CC(C)OC(C)C2)cc(OC)c1OC (stereo not drawn)	5%	·
16%	-0.2%	O=C(NCCC1=CCCCC1)c1cc(COc2ccc(F)cc2Cl)on1	7%	·
-1%	0.6%	C[C@@H]1CN([C@@H](C)CO)C(=O)c2cccc(NC(=O)C3CCCCC3)c2O[C@@H]1CN(C)C(=O)NC1CCCCC1	·	·
-8%	2.1%	CCC(C)(C)C1CCC2(CC1)NC(=O)N(CC(=O)NC(C)CCc1ccccc1)C2=O (stereo not drawn)	·	·
-7%	-0.3%	CCOc1ccc(S(=O)(=O)N2CCC(C(=O)NCc3cccnc3)CC2)cc1	1%	·
-7%	7.9%	Oc1cccc(-c2nc3ccccc3s2)c1	16%	-5
4%	5.8%	N#CCCN(C1CCCCC1)S(=O)(=O)c1cccc2nsnc12	-18%	0
-16%	0.3%	CCOC(=O)NC1(C(F)(F)F)NC(=O)N(c2cccc(C(F)(F)F)c2)C1=O (stereo not drawn)	-2%	8
-7%	-1.7%	CC#CCN1c2ccccc2[C@]23C[C@@H](C(=O)OC)N(C(=O)C4CCC4)C2=NC(C(=O)OC)=C(C(=O)OC)[C@H]13	-1%	-1&-3
0%	-1.6%	COc1ccc(N2CCN(CCCNC(=O)Cn3c(=O)c4cccn4c4ccccc43)CC2)cc1	-1%	·
0%	0.0%	COCc1nnc(NC(=O)c2cccs2)s1	-21%	6
5%	-0.1%	O=C(Oc1ccc(-c2ccccc2)cc1)c1ccco1	·	·
-6%	0.3%	O=C(O)CCSc1nc2ccccc2s1	?	·
2%	-2.0%	CC(NC(=O)c1nn(C)c(=O)c2ccccc12)c1ccc(F)cc1 (stereo not drawn)	1%	-7
17%	-1.6%	COc1cccc(C2=N/C(=C\N(C)C)C(=O)O2)c1	-35%	0
34%	0.1%	CC(=O)N1CCN(c2ncnc3ccccc23)CC1	9%	·
-8%	-2.5%	COc1ccc(N/C=C(/C(C)=O)c2ccccc2)cc1	-20%	-8
2%	-1.0%	Cc1ccc(-n2nnnc2SCC(=O)Nc2cccnc2Cl)cc1	-1%	4
-3%	?	O=C(/C=C/c1cccc([N+](=O)[O-])c1)NC(=S)Nc1ccc(CN2CCOCC2)cc1	-6%	-6
-7%	1.2%	COc1ccccc1CNC(=O)C(=O)NCCC1CCCCN1S(=O)(=O)c1ccccc1 (stereo not drawn)	·	·
-3%	0.0%	Cc1ccc(CNC(=O)C(OC(=O)c2ccco2)C(C)C)cc1 (stereo not drawn)	0%	-2
14%	?	Cc1ccc(S(=O)(=O)NC(=O)COc2cc(C)ccc2C(C)C)cc1	-1%	·
14%	6.7%	COc1ccc(C(=O)Nc2cnn(Cc3c(F)cccc3Cl)c2)cc1OC	0%	-2
4%	0.1%	Cc1c(C(=O)NCCN2CCOCC2)oc2ccc(S(=O)(=O)N3CCCCCC3)cc12	10%	-5
-2%	6.0%	O=C(c1ccc(CS(=O)c2ccccc2Cl)o1)N1CCN(c2ccccn2)CC1 (stereo not drawn)	21%	·
2%	-0.9%	CCCCNC(=O)CN(c1cccc(F)c1)S(C)(=O)=O	2%	-8
-3%	0.4%	O=C(NCc1ccc2c(c1)OCO2)C1(S(=O)(=O)c2ccccc2)CC1	-2%	4

The results go on:
Rango release inh	Rango-impB inh	molecule	miR-21 reporter	GLA inh pH 4.5
-23%	0.6%	CCc1ccccc1NC(=O)C1c2ccccc2Oc2ccccc21	-1%	7
3%	0.4%	Fc1ccccc1-c1cc2ncccc2cn1	·	·
2%	-0.4%	O=C(O)CN1CCN(C(c2ccccc2)c2ccccc2)CC1	1%	·
1%	2.4%	O=C(COc1ccc(Cl)cc1)NNC(=O)C(=O)NC1CCCCC1	1%	·
2%	-0.8%	CC(=O)N1CCN(c2ccc(NC(=O)c3ccc(F)cc3)cc2)CC1	-7%	·
2%	-0.8%	Cc1cc(C)cc(N(C(=O)c2ccc3c(c2)OCO3)C2C=CS(=O)(=O)C2)c1 (stereo not drawn)	0%	-4
2%	-2.9%	S=C(NCc1ccco1)N/N=C/c1ccc(Cl)cc1	-3%	3
-12%	0.8%	CCc1nc(N2CCCCC2C(=O)O)c2oc3ccccc3c2n1 (stereo not drawn)	5%	-2
-30%	-4.9%	COc1cc(/C=C/C(=O)OCC(=O)NC(=O)NC(C)C)ccc1O	5%	-9
19%	5.5%	COC(=O)c1ccc(NC(=O)CO/N=C2\CCCc3nonc32)cc1	-2%	-1
0%	1.3%	CC(C)[C@H](NC(=O)c1ccccc1Cl)C(=O)Nc1nc(-c2ccccn2)cs1	12%	-3
-10%	-3.3%	CCOc1ccc(-n2cc(-c3ccccc3)c3c(N4CCOCC4)ncnc32)cc1	3%	-1
-2%	-3.6%	C/C=C/Cn1c(SC)nc2c1c(=O)[nH]c(=O)n2C	-16%	·
-2%	8.8%	Cc1ccc(CNC(=O)C2CCC(=O)N(Cc3cccc(C(F)(F)F)c3)C2)o1 (stereo not drawn)	·	·
-13%	-0.9%	COc1ccc(C(=O)c2c[nH]c(C(=O)NCc3cccs3)c2)cc1	-2%	0
?	-0.7%	CCOC(=O)c1[nH]c2ccccc2c1NC(=O)c1ccc2c(c1)OCO2	-17%	-3
6%	-4.3%	Cc1ccc(S(=O)(=O)N[C@@H](Cc2ccccc2)C(=O)N2CCC(C(=O)N[C@@H](CC(C)C)C(=O)O)CC2)cc1	1%	·
?	?	CCN(CC)c1nc(-c2ccccc2)cc(C(F)(F)F)c1C#N	-2%	4
-4%	2.8%	COCCNC(=O)C(OC(=O)c1cccs1)c1ccccc1 (stereo not drawn)	-1%	-1
0%	-0.5%	C1CCCN(CCCCN2CCCCCC2)CC1	-4%	6
-7%	-0.8%	CCn1c(SCC(=O)N2CCN(c3ccc(F)cc3)CC2)nc2ccccc2c1=O	1%	-6
-7%	3.5%	Cc1cccc(CCNC(=O)Cn2ncc3c([nH]c4ccccc43)c2=O)c1	-1%	·
-16%	0.0%	CCN1CCC(NC(=O)c2cc(OC)c(OC)cc2OC)CC1	-6%	-4
-16%	-0.7%	ClCc1nc2ccccc2c2ccccc12	21%	·
-6%	0.3%	COC(Cc1nnc(SC)n1-c1ccc(Cl)cc1)OC	-4%	5

Some values from above:
In GLA inh pH 4.5, CCN1CCC(NC(=O)c2cc(OC)c(OC)cc2OC)CC1 reads -4
In miR-21 reporter, Cc1cc(C)cc(N(C(=O)c2ccc3c(c2)OCO3)C2C=CS(=O)(=O)C2)c1 (stereo not drawn) reads 0%

(more compounds)
Rango release inh	Rango-impB inh	molecule	miR-21 reporter	GLA inh pH 4.5
24%	-0.2%	CSCCC(NS(=O)(=O)c1ccccc1F)C(=O)NCc1cccnc1 (stereo not drawn)	·	·
4%	-6.4%	COC(=O)c1ccc(-c2nn(C)c(=O)c3ccccc23)cc1	-13%	-24
10%	7.5%	CCOC(=O)C1=C(C)NC(=O)C(C(N)=O)C12CCCC2 (stereo not drawn)	-1%	2
15%	0.1%	Cc1cnc(C(=O)OCC(=O)NCc2cccc(Cl)c2)cn1	·	·
-4%	0.0%	Cc1cc(=O)oc2cc(OCC(=O)NCCc3ccccc3)ccc12	-2%	·
-1%	1.5%	O=C(Oc1cccnc1)c1cccc(Cl)c1	0%	-4
1%	0.8%	O=C(Nc1ccccc1C(=O)O)/C(=C/c1ccc(Cl)cc1Cl)NC(=O)c1ccco1	1%	·
5%	-1.0%	Cc1ccc(C)c(NCc2ccccc2CO)c1	-9%	0
3%	5.4%	O=C(CCCCCN1C(=O)c2ccccc2C1=O)NCCc1nc2ccccc2[nH]1	-3%	-11
-11%	-0.5%	Cc1ccccc1-c1nsc(SCC(=O)Nc2ccc3c(c2)OCO3)n1	-5%	1
-17%	0.1%	COc1ccccc1NC(=O)CSc1nnc(-c2ccccc2)o1	-41%	-5
-5%	0.9%	CCN(CC)S(=O)(=O)c1cccc(NC(=O)c2cc(-c3cccs3)nn2-c2ccccc2)c1	5%	1
9%	2.1%	CCCC(=O)Nc1c(-c2ccccc2)c(=O)c(C)nn1-c1ccc(Cl)cc1	0%	7
2%	-1.8%	COc1cccc(NC(=O)COC(=O)c2ccco2)c1	-1%	1
-17%	-2.0%	Nc1c(N(Cc2ccco2)C(=O)c2cccc(F)c2)c(=O)[nH]c(=O)n1Cc1ccccc1	·	·
-1%	5.2%	CCO[C@H]1OC(C(=O)NC2CC2)=C[C@@H](c2ccc(Br)cc2)[C@@H]1CCCO	12%	0

5 entries drawn at random from the list so far:
Rango release inh	Rango-impB inh	molecule	miR-21 reporter	GLA inh pH 4.5
4%	-6.4%	COC(=O)c1ccc(-c2nn(C)c(=O)c3ccccc23)cc1	-13%	-24
24%	-0.2%	CSCCC(NS(=O)(=O)c1ccccc1F)C(=O)NCc1cccnc1 (stereo not drawn)	·	·
1%	0.8%	O=C(Nc1ccccc1C(=O)O)/C(=C/c1ccc(Cl)cc1Cl)NC(=O)c1ccco1	1%	·
2%	-1.8%	COc1cccc(NC(=O)COC(=O)c2ccco2)c1	-1%	1
-11%	-0.5%	Cc1ccccc1-c1nsc(SCC(=O)Nc2ccc3c(c2)OCO3)n1	-5%	1

Some of the compounds tested; rates above refer to the full screens.
